Compound activity (PubChem)
Vaccinia mCherry: vaccinia inhibition (mCherry reporter); Vaccinia virus mCherry reporter infection, fluorescence; about a quarter of the inactives have no number; Potency, µM (top dose mostly 36.5 µM), without a hit: at the top dose activity change, negative = inhibition, usual class: inhibitors; 310,000 compounds, 0.63% hits; active = well fitted inhibition curve with a large enough effect; inconclusive = small, poorly fitted or top-dose-only effect; inactive = no such curve, though single readings can be large or run the other way; tested in A549 cells; further: nearly all actives have a fitted effect of over 35% in size; inactives centre near -10
VACV Venus inh: vaccinia inhibition (Venus reporter) | Vaccinia virus Venus reporter expression, fluorescence | Potency, µM (titrated, usually from 36.5 µM), inactives show at the top dose activity change, negative = inhibition, actives largely listed as inhibitors | 330,000 compounds, 0.46% hits | AID 720580; active means well fitted inhibition curve with a large enough effect; inconclusive means small, poorly fitted or top-dose-only effect; inactive means no such curve, though single readings can be large or run the other way; tested in A549 cells; further: nearly all actives have a fitted effect of over 30% in size; inactives centre near -10
* hit, by the source's call; i = inactive; ? = inconclusive; / = no result given; & = joins results of further samples; [ ] = another dose, or the depositor's remark. On the % scale 0 is the no-effect control and ±100 the full control effect; potency means the concentration at half of the fitted maximal effect.

smiles | Vaccinia mCherry | VACV Venus inh
O=c1c2c(nc3nc(Cc4ccccc4)[nH]n13)CCC2 | / | ?
Oc1csc(Cc2nc(-c3ccc(-c4ccccc4)cc3)cs2)n1 | -8% | -5%
COc1ccc(C(C)(O)c2nc(-c3csc4ccccc34)cs2)cc1 (centres undefined) | 0% | -15%
CC(Sc1nnc(N)s1)C(=O)Nc1ccc2c(c1)OCO2 (centres undefined) | ? | -13%
Cc1ccc(-n2cc(-c3ccccc3)c3c(N4CCC(C)CC4)ncnc32)cc1Cl | -6% | -4%
CC1CC(=O)Nc2ccccc2N1C(=O)Nc1ccc(F)cc1 (centres undefined) | i | -9%
Cc1c(Cl)cccc1NC(=O)COC(=O)c1c2c(nc3ccccc13)CCN(Cc1ccccc1)C2 | 11µM* | ?
CC(C)c1cc(C(C)C)c(S(=O)(=O)NNC(=O)c2ccncc2)c(C(C)C)c1 | i | 0%
CN(C1=NS(=O)(=O)c2ccccc21)c1ccc(OC(=O)c2ccccc2)cc1 | i | 0%
O=C(NCCCN1CCOCC1)C1(c2ccccc2)CCCC1 | / | -12%

Quoted from the listing, 2 compounds:
smiles | Vaccinia mCherry | VACV Venus inh
O=c1c2c(nc3nc(Cc4ccccc4)[nH]n13)CCC2 | / | ?
Oc1csc(Cc2nc(-c3ccc(-c4ccccc4)cc3)cs2)n1 | -8% | -5%

Other results follow.
smiles | Vaccinia mCherry | VACV Venus inh
CCC(=O)NCc1nc(-c2cccc(NC(=O)c3ccc(C)s3)c2)oc1C | -16% | -19%
CCOC(=O)c1cccc(NC(=O)c2cc3cc4cc(OC)ccc4nc3s2)c1 | -25% | -21%
O=C(Cn1ncc2c3ccccc3n(Cc3ccc(Cl)cc3)c2c1=O)N1CCCCCC1 | -10% | -14%
NS(=O)(=O)c1ccc(NC(=O)COC(=O)CCC2CCCC2)cc1 | -4% | -17%
O=C(CN1CCN(C(=O)c2ccccc2)CC1)Nc1ccc(Br)cn1 | / | -28%
CCN(CC)CCn1c2c(c(SCC(=O)NCc3ccccc3)nc1=O)CCCC2 | -21% | -7%
CCC(=O)Nc1ccc(C2C(=O)c3ccccc3C2=O)cc1 | i | -9%
COc1cc(C)nc(OCCNS(=O)(=O)c2cc(C)ccc2C)n1 | / | -13%
O=C(Nc1cccs1)Nc1nnc([C@@H]2C[C@H](O)[C@@H](CO)O2)s1 | 12% | 8%
COc1cccc(OC)c1C(=O)OCC(=O)N1CCC(Cc2ccccc2)CC1 | i | -8%

Continued:
smiles | Vaccinia mCherry | VACV Venus inh
Cc1cc(C(F)(F)F)nc(SCC(=O)NC2CCCCC2)n1 | -10% | -15%
O=C(c1ccc(Cl)c(S(=O)(=O)N2CCCCCC2)c1)N1CCOCC1 | -2% | -4%
CCC(CO)n1c(SCc2cc([N+](=O)[O-])cc3c2OCOC3)nc2ccccc2c1=O (centres undefined) | -13% | -13%
O=c1cc(N2CCc3ccccc32)[nH]c(=O)n1-c1ccc(Br)cc1 | i | -20%
Cc1cc(-c2nnc(SCc3ccccn3)o2)no1 | i | -12%
Cc1ccc2cc3c(N)nn(C(=O)c4cccc(F)c4)c3nc2c1 | -24% | -12%
COc1cccc(CN(C)CCCn2cnc3c(SC)ncnc32)c1 | -9% | -18%
Oc1ccc(C[C@H]2CNC(=S)N2CC2CCCN2C[C@H](Cc2ccccc2)N2C[C@H](Cc3ccc(O)cc3)N(CC3CCCCC3)C2=S)cc1 (some centres undefined) | -21% | -26%
Cc1ccc(/C=C/c2onc(C)c2S(=O)(=O)N2CCC(C(=O)N(CCC(C)C)Cc3ccco3)CC2)cc1 | -14%[7.34 µM] | -3%[7.34 µM]
O=C(Nc1ccccc1)/C(=C/c1ccc2c(c1)OCO2)NC(=O)c1ccco1 | i | -3%

(more compounds)
smiles | Vaccinia mCherry | VACV Venus inh
COc1ccc(/C=N/NC(=O)c2ccoc2C)cc1COc1c(C)cccc1C | 13µM* | ?
Cc1ccnc2nc(C(=O)OCC(=O)c3ccccc3)nn12 | -10% | 3%
COc1ccc2oc(C(=O)OCC(=O)NCc3ccccc3OC)c(C)c2c1 | -24% | -1%
O=C(NCc1ccco1)c1ccc(COc2cccc3ccccc23)cc1 | -21% | -22%
Cc1ccc(C)n1-c1cccc(S(=O)(=O)N2CCOCC2)c1 | -15% | -5%
CC(=O)N(C)c1ccc(NS(=O)(=O)c2cccc3nsnc23)cc1 | -12% | 1%
CN(c1ccccc1)S(=O)(=O)c1ccc(Cl)c(C(=O)Nc2ccccc2N2CCOCC2)c1 | -24% | -11%
OC1(c2cccnc2)CCN(Cc2ccc3c(c2)CN(Cc2ccc4nsnc4c2)CCO3)CC1 | -25% | -21%
COc1cccc(CC(NC(C)=O)C(=O)NC2CCN(C(=O)c3ccc(Cl)cc3)CC2)c1OC (centres undefined) | i | 4%
CC(=O)c1ccccc1C(=O)N1CCC(n2nccc2NC(=O)C2CC2)CC1 | -13% | -10%

Carrying on.
smiles | Vaccinia mCherry | VACV Venus inh
O=c1cc(-c2ccccc2)n2c(SCc3cccc([N+](=O)[O-])c3)nnc2[nH]1 | i | -3%
Nc1nc(-c2cccs2)cs1 | ? | ?
COc1ccc(/C(=C/c2ccc(OC(F)F)c(OC)c2)C(=O)O)cc1OC | -14% | -4%
Cc1cc(Cl)c(S(=O)(=O)NC(C(=O)O)c2ccccc2)cc1OCC(N)=O (centres undefined) | i | -8%
COc1ccccc1CNC(=O)CN1C(=O)NC(Cc2ccccc2)(c2ccccc2)C1=O (centres undefined) | -27% | -22%
C#Cc1ccccc1OCCCN1CCC(C(O)(c2ccccc2)c2ccccc2)CC1 | -25% | ?
CCCCOc1c(Cl)cc(C(=O)N2CCN(CC(=O)N3CCCC3)CC2)cc1OCC | ? | ?
COc1ccc(NC(=O)CSc2c3c(nc4ccc(Cl)cc24)CCCC3)cc1Cl | -13% | -17%
CCOC(=O)C1=C(COC(=O)CCOc2ccccc2C)NC(=O)NC1C (centres undefined) | -1% | -16%
CCNC(=O)C(CC(C)C)NC(=O)C(CO)NC(=O)C1CCC(=O)N1 (centres undefined) | -8%[7.34 µM] | -30%[7.34 µM]

Single values from the list.
In VACV Venus inh, O=c1cc(-c2ccccc2)n2c(SCc3cccc([N+](=O)[O-])c3)nnc2[nH]1 has -3%
In VACV Venus inh, COc1ccc(NC(=O)CSc2c3c(nc4ccc(Cl)cc24)CCCC3)cc1Cl has -17%
In VACV Venus inh, COc1ccc(/C(=C/c2ccc(OC(F)F)c(OC)c2)C(=O)O)cc1OC has -4%
In VACV Venus inh, Cc1cc(Cl)c(S(=O)(=O)NC(C(=O)O)c2ccccc2)cc1OCC(N)=O (centres undefined) has -8%

The listing continues.
smiles | Vaccinia mCherry | VACV Venus inh
O=C1CC2(CCN(C(=O)C3CC(=O)N(c4ccc(F)cc4)C3)CC2)Oc2ccccc21 (centres undefined) | -24% | -24%
C[C@@H]1CN([C@@H](C)CO)C(=O)CCCn2nncc2CO[C@@H]1CN(C)C(=O)Nc1cccc(Oc2ccccn2)c1 | i | -11%
CN(CC(=O)Nc1c(Cl)cccc1Cl)C(=O)c1ccccc1Cc1ccccc1 | -9% | -25%
COc1cc(Nc2nc(-c3ccccc3)c3cc(C)ccc3n2)cc(OC)c1OC | -29% | -21%
COc1cccc(C(=O)N2CCN(C(=O)c3cccc(F)c3)CC2)c1 | i | -17%
CCn1c(N2CCN(CC(=O)c3c[nH]c4ccccc34)CC2)nc2c1c(=O)[nH]c(=O)n2C | -21% | -7%
Cc1ccsc1/C=C1/SC(N2CC(C)OC(C)C2)=NC1=O (centres undefined) | -18% | ?
COc1cc2nc(=S)n3[nH]c(CCn4nc(C)cc4C)nc3c2cc1OC | ? | ?
CCSc1nnc(Nc2ccc(C)cc2)s1 | ? | -16%
COC(=O)[C@H](Cc1ccccc1)NC(=O)Cn1cnc2c(OCc3ccccc3)ncnc21 | ? | -9%

(more compounds)
smiles | Vaccinia mCherry | VACV Venus inh
O=C(Cc1ccccc1)c1c[nH]c(C(=O)NCCCN2CCOCC2)c1 | i | -2%
O=C(CSC1=Nc2ccccc2C2CC=NN12)NCc1ccco1 (centres undefined) | ? | -5%
O=C(C[n+]1ccccc1)c1ccc(O)c(O)c1 | ? | -7%
NC(=O)c1ccc(NC(=O)COC(=O)C2CC(=O)N(Cc3ccccc3)C2)cc1 (centres undefined) | -25% | -3%
Cc1cccc2sc(NC(=O)CSCc3ccccc3)nc12 | 0% | -11%
CN(C(=O)CSc1ncnc2scc(-c3ccccc3)c12)C1CCS(=O)(=O)C1 (centres undefined) | -10% | -4%
CSc1ccc(C(=O)C2CCCN(C(=O)CCc3c(C)nn(C)c3C)C2)cc1 (centres undefined) | -10% | -26%
O=C1COc2ccc(C(=O)COC(=O)c3nc(Cl)ccc3Cl)cc2N1 | -6% | -3%
CN1CCN(CCCNC(=O)Cn2c(-c3cccs3)cc3ccccc32)CC1 | 1% | -4%
COc1cc(CN2C(=O)C(C)ON=C2c2ccccc2F)cc(OC)c1 (centres undefined) | i | 1%

A draw from above in order of SMILES length, rising:
smiles | Vaccinia mCherry | VACV Venus inh
Cc1ccnc2nc(C(=O)OCC(=O)c3ccccc3)nn12 | -10% | 3%
O=C(Nc1ccccc1)/C(=C/c1ccc2c(c1)OCO2)NC(=O)c1ccco1 | i | -3%
Cc1cc(Cl)c(S(=O)(=O)NC(C(=O)O)c2ccccc2)cc1OCC(N)=O (centres undefined) | i | -8%
O=C1CC2(CCN(C(=O)C3CC(=O)N(c4ccc(F)cc4)C3)CC2)Oc2ccccc21 (centres undefined) | -24% | -24%

Further records
smiles | Vaccinia mCherry | VACV Venus inh
O=C(CN1CCOCC1)Nc1ncccn1 | -9% | -3%
CCOC(=O)c1ccc2ncc(C(=O)OCC)c(NCCN(C)C)c2c1 | i | -12%
NC(=O)COC(=O)c1ccccc1OCc1ccccc1 | i | -7%
CC(C)(C)NC(=O)CSc1nc(N)cc(=O)[nH]1 | i | -4%
CCOc1ccccc1N1CC(C(=O)Nc2cc(S(C)(=O)=O)ccc2Cl)CC1=O (centres undefined) | -2% | -25%
c1ccc(-c2nc3nonc3c3nc4ccccc4n23)cc1 | i | -11%
Cc1ccc(C)c(CN2C(=O)C3(c4ccccc42)N(c2cccc(C(F)(F)F)c2)C(=O)CS3(=O)=O)c1 (centres undefined) | 1% | 3%
COc1ccc(NC(=O)C2CCN(S(=O)(=O)c3c(C)nn(C)c3C)CC2)cc1 | -13% | -11%
CC(C)c1ccccc1NC(=O)CC1(CC(=O)O)CCCC1 | -10% | -12%
COc1ccccc1-n1cnnc1SCC(=O)NCC1CCCO1 (centres undefined) | -1% | -15%

Following part
smiles | Vaccinia mCherry | VACV Venus inh
CC1CCCN(C(=O)C(Cc2ccccc2)n2cccc2)C1 (centres undefined) | 5% | 5%
CN1CCN(/N=C/c2nc(-c3ccc(Cl)cc3)n3ccccc23)CC1 | ? | -30%
CCCCc1cc(=O)oc2c(C)c(OCC(=O)NCC3CCC(C(=O)O)CC3)ccc12 (centres undefined) | 0% | -4%
COc1ccc(C(NC(=O)C2CCN(CCOc3ccc(F)cc3)CC2)c2cccs2)cc1 (centres undefined) | 22% | -24%
COC(=O)C1=C[C@@H](C(=O)OC)[C@@H]2C3=C(C(=O)C2(C)C)[C@H](c2ccccc2)[C@@H]2C(=O)N(C)C(=O)[C@@H]2[C@@H]3C1 | -16% | -5%
COc1ccc(OC)c(C2/C(=C(/O)c3ccc(C)cc3)C(=O)C(=O)N2Cc2ccco2)c1 (centres undefined) | i | 5%
COc1ccccc1CNC(=O)c1cc(S(=O)(=O)N2CCOCC2)cn1C | i | -6%
Cc1nc2ccccc2nc1OCC(=O)NCC(F)(F)F | -10% | -1%
CCc1ccc(NC(=O)C(C)OC(=O)Cn2[nH]c(=O)c3ccccc3c2=O)cc1 (centres undefined) | i | -6%
COc1cccc(-c2cc(C(=O)Nc3ccc4c(c3)OCO4)no2)c1 | 1%&5% | 3%&2%

Later entries:
smiles | Vaccinia mCherry | VACV Venus inh
CN(C)C(=O)[C@H]1C[C@H]1[C@@H](O)[C@H](CO)NC(=O)[C@H](Cc1ccccc1)NC(=O)OC(C)(C)C | i | -4%
COc1ccc2c(c1)OC13CCN(C)CC1C2C(C(=O)c1ccc(F)cc1)C(=O)N3 (centres undefined) | -26% | -9%
Cc1noc(C)c1CSc1ncnc2ccccc12 | -23% | -15%
Oc1ccc(Cl)cc1C=Nc1ccccc1Br | i | 0%
Cc1cc(C)n2c(Br)c(CN3CCCC(C)C3)nc2n1 (centres undefined) | -3% | -1%
CCOc1cccc(C(=O)Nc2ccc(NC(=O)c3ccccc3)c(C)c2)c1 | i | -8%
Cc1cc(NC(=O)C2C3C(=O)N(CC4CCCO4)C(C(=O)NCc4ccccc4)C34C=CC2(C)O4)no1 (centres undefined) | -4% | -11%
Cc1cc(N2CCCC2)n2nc(C)nc2n1 | -14% | -7%
CCOCN(C(=O)Cn1c(C(C)O)nc2ccccc21)c1c(C)cccc1CC (centres undefined) | / | -12%
Cc1cccc(NC(=O)CSc2ncc3c(n2)-c2cc(Cl)ccc2N(C)S3(=O)=O)c1C | ? | -18%

Next part
smiles | Vaccinia mCherry | VACV Venus inh
Cc1ccc(C)c(N2CCN(C(c3ccc(F)cc3)c3nnc(-c4ccccc4)o3)CC2)c1 (centres undefined) | -11% | -17%
CCOc1ccc(C(C(=O)NC(C)(C)C)N(CCOC)C(=O)CCC(=O)Nc2nccs2)cc1 (centres undefined) | i | 0%
Cc1ccc2nc(Cl)c(CN(C(=O)c3cnccn3)C3CCCCC3)cc2c1 | -26% | -17%
Cc1ccc(CSc2nc3cc(C(=O)NC4CCCC4)ccc3c(=O)n2Cc2ccccc2)cc1 | -8% | -6%
Cc1cc2ccccc2c(=O)n1CC(=O)NCC(=O)N(C)C1CCCCC1 | i | -2%
